HSD17B inh: HSD17B dehydrogenase inhibition | recombinant HSD17B10, NADH fluorescence kinetic; many of its hits are not listed in these tables | AID 893 | Potency, µM (doses to about 57.1 µM), without a hit: top-dose activity change, negative = inhibition, most hits filed as inhibitors | actives 7.6% (n = 75,000); active = well fitted inhibition curve with a large enough effect; inconclusive = small, poorly fitted or top-dose-only effect; inactive = no such curve, though single readings can be large or run the other way;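 also: the protocol describes HADH2 (HSD17B10) and not the HSD17B4 of the title; nearly all actives have a fitted effect of over 70% in size; most hits overshoot -100% by far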
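Activity followed as NADH fluorescence increase (ex 360, em 450 nm) every 30 seconds for 4 min, using final 90 uM beta-hydroxybutyryl CoA and 1 mM NAD+. Recombinant His-tagged enzyme, 20 nM, pH 9.0 Tris buffer, 15 min compound preincubation.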
* hit, by the source's call; & = joins results of further samples; [ ] = dose if it differs, or a comment. % is scaled to controls: 0 for no effect and ±100 for the full control effect; potency is read from the fitted curve at half-maximal effect. Only part of the results is shown. The share of hits here may be higher or lower than overall.

Sample of the layout (16 entries):
Screening CN(C)CCCNC(=O)CC(c1ccc(F)cc1)c1ccco1 (stereo not drawn) returned HSD17B inh 1%.
For Cc1cccc(N=C2NC(=O)/C(=C3/C(=O)N(C)c4ccccc43)S2)c1C the results were HSD17B inh -19%.
Screening CC(=O)NC1CC2CCCC(C1)N2CC(=O)NCc1ccc(F)cc1 (stereo not drawn) returned HSD17B inh 5%.
For COc1ccc(N2CCCn3c2nc2c3c(=O)n(Cc3ccccc3F)c(=O)n2C)c(OC)c1 the results were HSD17B inh -10%.
`O=C1OC(NC(=O)c2ccccc2)C(N2CCOCC2)=C1Cl` (stereo not drawn) gave HSD17B inh 10%.
For CC(CCc1ccccc1)NC(=O)C1CCCN(C(=O)c2cc3sccc3n2C)C1 (stereo not drawn) the results were HSD17B inh -12%.
`CCOc1ccc(N2C(=O)CC(NCCc3ccc(S(N)(=O)=O)cc3)C2=O)cc1` (stereo not drawn) gave HSD17B inh -1%.
`Cc1ccnc(SCC(=O)Nc2oc(-c3ccccc3)c(-c3ccccc3)c2C#N)n1` gave HSD17B inh -4%.
`CCc1cccc(N(C)C(N)=Nc2cccc3ccccc23)c1` gave HSD17B inh -9%.
`O=C(O)c1cccn1Cc1ccccc1F` gave HSD17B inh 5%.
CCCS(=O)(=O)N1CCN(C(=O)c2cc(OC)cc(OC)c2)CC1 was read as HSD17B inh 3%.
For COc1ccc(Cc2nnc(SCC(=O)NC3CCCCC3)n2C)cc1 the results were HSD17B inh 1%.
Screening COC(=O)NC(c1cccc(C)c1)[C@]1(C(C)=O)CCCC1=O (stereo partly drawn) returned HSD17B inh 6%[11.4 µM].
`CC1(C)C(=O)C2(CCCCC2)C(=O)OC1c1cccs1` (stereo not drawn) gave HSD17B inh 3%.
`CCCCNc1c(C(=O)OCC)c(C)nc2c1cnn2CC` gave HSD17B inh -8%.
For Cc1ccccc1C(=O)NCc1ccncc1 the results were HSD17B inh -3%.

Results, previewed entries included:
Screening CN(C)CCCNC(=O)CC(c1ccc(F)cc1)c1ccco1 (stereo not drawn) returned HSD17B inh 1%.
For Cc1cccc(N=C2NC(=O)/C(=C3/C(=O)N(C)c4ccccc43)S2)c1C the results were HSD17B inh -19%.
Screening CC(=O)NC1CC2CCCC(C1)N2CC(=O)NCc1ccc(F)cc1 (stereo not drawn) returned HSD17B inh 5%.
For COc1ccc(N2CCCn3c2nc2c3c(=O)n(Cc3ccccc3F)c(=O)n2C)c(OC)c1 the results were HSD17B inh -10%.
`O=C1OC(NC(=O)c2ccccc2)C(N2CCOCC2)=C1Cl` (stereo not drawn) gave HSD17B inh 10%.
For CC(CCc1ccccc1)NC(=O)C1CCCN(C(=O)c2cc3sccc3n2C)C1 (stereo not drawn) the results were HSD17B inh -12%.
`CCOc1ccc(N2C(=O)CC(NCCc3ccc(S(N)(=O)=O)cc3)C2=O)cc1` (stereo not drawn) gave HSD17B inh -1%.
`Cc1ccnc(SCC(=O)Nc2oc(-c3ccccc3)c(-c3ccccc3)c2C#N)n1` gave HSD17B inh -4%.
`CCc1cccc(N(C)C(N)=Nc2cccc3ccccc23)c1` gave HSD17B inh -9%.
`O=C(O)c1cccn1Cc1ccccc1F` gave HSD17B inh 5%.
CCCS(=O)(=O)N1CCN(C(=O)c2cc(OC)cc(OC)c2)CC1 was read as HSD17B inh 3%.
For COc1ccc(Cc2nnc(SCC(=O)NC3CCCCC3)n2C)cc1 the results were HSD17B inh 1%.
Screening COC(=O)NC(c1cccc(C)c1)[C@]1(C(C)=O)CCCC1=O (stereo partly drawn) returned HSD17B inh 6%[11.4 µM].
`CC1(C)C(=O)C2(CCCCC2)C(=O)OC1c1cccs1` (stereo not drawn) gave HSD17B inh 3%.
`CCCCNc1c(C(=O)OCC)c(C)nc2c1cnn2CC` gave HSD17B inh -8%.
For Cc1ccccc1C(=O)NCc1ccncc1 the results were HSD17B inh -3%.
Cc1ccc(CCN2CC(C(=O)NCCN3CCOCC3)CC2=O)cc1 (stereo not drawn) was read as HSD17B inh 0%.
Cc1cc(NC(=O)c2ccc3nc(C)sc3c2)no1 was read as HSD17B inh -2%.
Screening COc1ccc(CN(CCN(C)C)Cc2ccccc2)c(OC)c1 returned HSD17B inh 5%.
For OC1(c2cccc(C(F)(F)F)c2)CCNCC1 the results were HSD17B inh -3%.
`CC(=O)N1CCC[C@@]2(CCN(c3ccccc3)C2)C1` gave HSD17B inh -1%.
COCCNC(=O)C(c1ccccc1)N(Cc1cccs1)C(=O)Cn1nnc2ccccc21 (stereo not drawn) was read as HSD17B inh 7%.
For Cc1nnc(NC(=O)C2CCCN(S(=O)(=O)c3ccccc3C(F)(F)F)C2)s1 (stereo not drawn) the results were HSD17B inh 0%.
Screening Cc1cc(C)n(-c2nc3ccccc3c(=O)n2OCC(=O)N(C)C)n1 returned HSD17B inh -5%.
`Cc1nnc(C)c2c(C)n(-c3ccc(Br)cc3)c(C)c12` gave HSD17B inh 7%.
CCc1nnc(NC(=O)CSc2nnc(COc3ccc(C)cc3)n2-c2ccccc2)s1 was read as HSD17B inh -6%.
CN(CC(=O)N1CCCCCC1)S(=O)(=O)c1ccc(Br)s1 was read as HSD17B inh -1%.
For CSCC[C@H](NC(=O)Nc1ccc(C)cc1C)C(=O)O the results were HSD17B inh 7%.
Screening COC(=O)c1ccc(C(NC(=O)OCc2ccccc2)/C(I)=C/[C@@H](C)C(=O)Nc2ccccc2)cc1 (stereo partly drawn) returned HSD17B inh 13%.
Screening CSc1nc(-c2ccco2)cc(-c2ccccc2)c1C#N returned HSD17B inh inconclusive.
Screening CCCNC(=O)CC1Sc2ccccc2NC1=O (stereo not drawn) returned HSD17B inh -14%.
For CCS(=O)c1ccccc1C(=O)O (stereo not drawn) the results were HSD17B inh 4%.
CCOC(=O)c1cccc(NC(=O)CSc2nnc(-c3cccnc3)n2C)c1 was read as HSD17B inh 13%.
Screening Cc1onc(-c2c(F)cccc2Cl)c1C(=O)OCn1nnc2ccccc2c1=O returned HSD17B inh -4%.
O=C(NCCc1ccc(Cl)cc1)C1CCN(S(=O)(=O)N2CCCCC2)CC1 was read as HSD17B inh -1%.
Screening CC(=O)OC[C@H]1O[C@@H](O/N=C(\C)CCN2CCc3nc(-c4ccccc4)c(-c4ccccc4)cc3C2)[C@H](OC(C)=O)[C@@H](OC(C)=O)[C@H]1OC(C)=O returned HSD17B inh 2%[11.4 µM].
For CCOc1ccc(-n2ccnc2SCC(=O)Nc2nnc(CC)s2)cc1 the results were HSD17B inh 9%.
O=C(NCC1CCCO1)c1ccc(C(=O)NCC2CCCO2)cc1 (stereo not drawn) was read as HSD17B inh -2%.
Screening Nc1nonc1C(=O)NCCNCc1cc(Br)ccc1OCc1ccc(F)cc1 returned HSD17B inh 4%.
`CCNc1nc(Oc2ccc(C(=O)OC)cc2)nc(SC)n1` gave HSD17B inh -6%.
`Cc1ccc(C)n1-c1ccc(N2CCOCC2)nc1` gave HSD17B inh 25µM*.
`CCCSc1nc(N)cc(=O)[nH]1` gave HSD17B inh 3%.
Cc1ccc(C(C(=O)NCc2ccco2)N(Cc2ccco2)C(=O)CNC(=O)c2ccco2)cc1 (stereo not drawn) was read as HSD17B inh -2%.
Screening CCOc1ccc(CNC(=O)C2CCN(S(=O)(=O)N3CCCC3)CC2)cc1OC returned HSD17B inh 1%.
CCc1ccc(CNc2ccc(O)cc2)cc1 was read as HSD17B inh -27%.
Screening O=C(Nc1sc2c(c1C(=O)NCc1cccnc1)CCCC2)c1ccco1 returned HSD17B inh inconclusive.
For O=C(CN1C(=O)c2ccccc2C1=O)NC1(C(=O)O)CCCC1 the results were HSD17B inh 16%[11.4 µM].
For C=CCn1c(SCC(=O)NC2CCS(=O)(=O)C2)nc2scc(C3CC3)c2c1=O (stereo not drawn) the results were HSD17B inh -9%.
O=C1C=C(NCc2ccco2)CCC1 was read as HSD17B inh 11%.
For CCc1nnc(NS(=O)(=O)c2ccc(NC(=O)OC)cc2)s1 the results were HSD17B inh -5%.
For O=C(/C=C/C=C/c1ccc2c(c1)OCO2)N1CCCCC1 the results were HSD17B inh inconclusive.
`COc1ccc(C)cc1NC(=O)c1cc2cc3ccc(C)cc3nc2o1` gave HSD17B inh -9%.
`O=C(CSc1nnc(CNC(=O)c2cccs2)o1)Nc1cccc(C(F)(F)F)c1` gave HSD17B inh -2%.
Screening CC1(c2ccccc2Cl)NC(=O)N(CC(=O)NC(=O)NCc2ccco2)C1=O (stereo not drawn) returned HSD17B inh -3%.
Screening O=C(CCN1C(=O)c2ccccc2C1=O)Nc1ccc2c(c1)OCCO2 returned HSD17B inh 3%.
CC(NC(=O)OCc1ccccc1)C(=O)N1CC(O)CC1C(=O)O (stereo not drawn) was read as HSD17B inh 11%.
c1ccc(-n2nnc3cnccc32)cc1 was read as HSD17B inh -9%.
Screening CC(=O)COc1cc(C)cc2oc(=O)c(C)c(C)c12 returned HSD17B inh 25µM*.
For Cc1ccc(OCc2nc(C#N)c(NCCCn3ccnc3)o2)cc1 the results were HSD17B inh inconclusive.
For Cc1nc(NC2=NCN(CCCN3CCOCC3)CN2)nc2c(C)cccc12 the results were HSD17B inh -14%.
For c1ccc2c(c1)NC1(CCCC1)n1c-2nc2ccccc21 the results were HSD17B inh 25µM*.
Screening CCn1c(SCC(=O)C(C)(C)C)nnc1-c1cnccn1 returned HSD17B inh 0%.
`COc1ccc(O[C@H]2C=C[C@@H](c3ccccc3)O[C@H]2COC(=O)N2CCCCC2)cc1` gave HSD17B inh -2%[11.4 µM].
`CCOC(=O)NC1(C(F)(F)F)NC(=O)N(Cc2ccco2)C1=O` (stereo not drawn) gave HSD17B inh 3%.
Screening COc1ccc(C(=O)NCC23C=CC(O2)C2C(=O)N(Cc4ccccc4)C(=O)C23)cc1 (stereo not drawn) returned HSD17B inh -5%.
Screening O=C(NCCCN1CCOCC1)c1cc2c(s1)CSC2 returned HSD17B inh inconclusive.
COc1ccc2c(CSc3nc4nc(C)cc(C)n4n3)cc(=O)oc2c1 was read as HSD17B inh inconclusive.
For CC1CCCC(NC(=O)C2CCN(S(=O)(=O)N3CCOCC3)CC2)C1C (stereo not drawn) the results were HSD17B inh 1%.
Screening O=C(Oc1ccccc1)c1cccc(N2C(=O)CCC2=O)c1 returned HSD17B inh 5%.
`CCCC12CN3CC(C)(CN(C1)C31CCCCC1)C2=O` gave HSD17B inh 16%.
O=C(Cn1nnc(-c2ccccc2NC(=O)c2ccco2)n1)NC1CCCCC1 was read as HSD17B inh inconclusive.
For CCCCCCC=O the results were HSD17B inh 1%.
For O=C(CSc1nnc(Cc2ccccc2)o1)NC1CC2CCC1C2 (stereo not drawn) the results were HSD17B inh 13%.
Screening CN1CCN(c2ccc(Cl)cc2NC(=O)c2ccc(S(=O)(=O)N3CCCCCC3)cc2)CC1 returned HSD17B inh -5%.
Screening c1ccc(OCCCc2nc(-c3ccncc3)no2)cc1 returned HSD17B inh 2%.
CCn1c(-c2cc(Br)ccc2O)n[nH]c1=S was read as HSD17B inh -6%.
`CC1(C)C=Cc2c(cc3occ(-c4ccc5c(c4)OCO5)c(=O)c3c2O)O1` gave HSD17B inh 6%.
For O=C(CSc1ncn[nH]1)Nc1cccc2ccccc12 the results were HSD17B inh 0%.
C=CCn1c(SCC(=O)Nc2ccccc2OC)nnc1-c1ccccn1 was read as HSD17B inh 7%.
For c1ccc2c(c1)CCCC2C1=NCCN1 (stereo not drawn) the results were HSD17B inh 10%&-2%.
Screening COc1cccc(NC=C2C(=O)OC(C)(C)OC2=O)c1 returned HSD17B inh inconclusive.
`CCc1ccc2nc(NC3=NCN(CCOC)CN3)nc(C)c2c1` gave HSD17B inh 6%.
Screening O=C1C2C3C=CC(C3)C2C(=O)N1CCN1CCN(S(=O)(=O)c2ccc3ccccc3c2)CC1 (stereo not drawn) returned HSD17B inh 6%.
`CSc1[nH]c(=O)c(C(=O)O)cc1C#N` gave HSD17B inh inconclusive.
For CCN(CCNC(=O)C1CCN(S(C)(=O)=O)CC1)c1ccccc1 the results were HSD17B inh 6%.
For CCCn1c(C)nc2c(c1=O)c1nc3ccccc3nc1n2CCc1ccccc1 the results were HSD17B inh inconclusive.
Screening NC(N)=NCc1cccc(I)c1 returned HSD17B inh -6%.
Screening CCCN1C(=O)c2ccc(C(=O)Nc3cc(C)on3)cc2C1=O returned HSD17B inh -5%.
Screening COc1cccc(OC)c1OCCNC[C@@H]1CSc2ccccc2O1 returned HSD17B inh -5%.
For COC(=O)c1cc2sc(Cl)cc2n1CC(=O)N1CCCc2ccccc21 the results were HSD17B inh -11%.
Screening CC(C)c1ccc(NC(=O)c2cnn(-c3ccccc3)c2NC(=O)c2ccco2)cc1 returned HSD17B inh 9%.
`COc1ccc(S(=O)(=O)NCc2ccc3c(c2)OCO3)cc1C(=O)O` gave HSD17B inh -3%.
For CCc1ccccc1N=C1SCC(=O)N1C the results were HSD17B inh 0%.
For Cc1ccc(NC(=O)CCn2cccc2)cc1Cl the results were HSD17B inh -3%.
Cc1csc(NC(=O)CSc2nnc(-c3ccccn3)n2-c2ccc(C)c(C)c2)n1 was read as HSD17B inh -15%.
`Cc1ccc2c(c1)c1c3n2CCN(C(=O)Cn2c(-c4ccccc4)noc2=O)C3CCC1` (stereo not drawn) gave HSD17B inh -21%.
`ON1C2CCCCC2N(O)C1c1c(F)c(F)c(F)c(F)c1F` (stereo not drawn) gave HSD17B inh 6%.
For CC(C)c1ccc(S(=O)(=O)N2CCN(C(=O)c3cccc(F)c3)CC2)cc1 the results were HSD17B inh 7%.
`CCOC(=O)c1ccccc1NC(=O)c1cccs1` gave HSD17B inh 2%.
NC(=O)c1ccccc1N/C=C/C(=O)c1ccccc1 was read as HSD17B inh inconclusive.
For Cc1ccc(C(=O)COC(=O)c2ccc(Br)o2)cc1C the results were HSD17B inh -9%.
Screening COc1ccc(-c2noc(-c3ccco3)n2)cc1OC returned HSD17B inh 14%.

Assay outcomes as filed in PubChem BioAssay.
